Screening results deposited in PubChem by National Center for Advancing Translational Sciences (NCATS).
Vaccinia Venus: qHTS for Stage-Specific Inhibitors of Vaccinia Orthopoxvirus: Venus Reporter Primary qHTS; Vaccinia virus Venus reporter expression, fluorescence; Potency, µM (top dose mostly 36.5 µM), for the others: at the top dose activity change, negative = inhibition, hits mostly inhibitors; 0.46% of 330,000 active; active means well fitted inhibition curve with a large enough effect; inconclusive means small, poorly fitted or top-dose-only effect; inactive means no such curve, though single readings can be large or run the other way; tested in A549 cells; note: nearly all actives have a fitted effect of over 30% in size; inactives centre near -10
Vaccinia mCherry: qHTS for Stage-Specific Inhibitors of Vaccinia Orthopoxvirus: mCherry Reporter Primary qHTS. Vaccinia virus mCherry reporter infection, fluorescence; about a quarter of the inactives have no number. Potency, µM (highest dose often 36.5 µM), for inactives: at the highest dose activity change, negative = inhibition, usual class: inhibitors. 0.63% of 310,000 active. AID 720579, 2013; active = well fitted inhibition curve with a large enough effect; inconclusive = small, poorly fitted or top-dose-only effect; inactive = no such curve, though single readings can be large or run the other way; tested in A549 cells; note: nearly all actives have a fitted effect of over 35% in size; inactives centre near -10
Starred values were filed as active, the others as inactive; i = inactive; ? = inconclusive; nt = no result given; & = joins results of further samples. % is set by controls: 0 for no effect and ±100 for the full control effect; potency is the fitted concentration of half-maximal effect.

Each structure is followed by: Vaccinia mCherry | Vaccinia Venus
O=C(c1cc2ccccc2o1)c1nc2c(n1O)CCCCC2
 : i | -12%
CCOC(=O)c1ccc(NC(=O)N2CCOc3ccccc32)cc1
 : -13% | -8%
CCCc1c(C)[nH]c2ccc(C(=O)O)cc2c1=S
 : i | -8%
CC(=O)c1cccc(NC(=O)c2sc3nc4c(cc3c2N)CCCC4)c1
 : -3% | -25%
COc1ccc(C2=CC(c3ccc(OC)c(OC)c3)NC(=S)N2)cc1 (configuration not stated)
 : ? | 2%
CCn1cc(C(=O)NCCCN(CC(C)C)CC(C)C)c(=O)c2cc(S(=O)(=O)N(C)C3CCCCC3)ccc21
 : -26% | -19%
O=C1OCCC1=COCCCCOC=C1CCOC1=O
 : i | -2%
COc1ccc(-c2noc(Cn3c(=O)c4ccccc4n(CC(=O)Nc4cccc(C(F)(F)F)c4)c3=O)n2)cc1
 : -10% | -20%
C=CCNc1nc(NCc2cccc(OC)c2)c2sc(-c3ccccc3)cc2n1
 : i | 5%
COCCNC(=O)CN(Cc1cccs1)C(=O)CCC(=O)Nc1nccs1
 : i | 8%
O=C(CN1C(=O)CSc2ccccc21)Nc1ccc2c(c1)OCCO2
 : -12% | -3%
O=C(OCCOc1ccc(Br)cc1)c1cnccn1
 : nt | -6%
CCc1ccc(NC(=S)NC(=O)CC(C)C)cc1
 : i | -15%
COc1ccc(C)cc1NC(=O)C1CCN(S(=O)(=O)c2ccc3[nH]c4c(c3c2)CCCCC4)CC1
 : -19% | -6%
CCOC(=O)C1CCN(C(=O)COC(=O)c2cc(-c3cccs3)nn2-c2ccccc2)CC1
 : -5% | -1%
Cn1ccnc1-c1nnn(-c2ccc(F)cc2)n1
 : -7% | -7%
COc1cccc(CNC(=O)c2ccc(-c3nc(CSc4ccccc4)c(C)o3)cc2)c1
 : i | -1%
O=C(CCc1ccccc1)NCCSCc1c(F)cccc1Cl
 : i | -12%
Cc1c(C(=O)N2CCOCC2)sc2ncn(CC(=O)N3CCC(C)CC3)c(=O)c12
 : i | 0%
COc1ccc(CCNCc2ccc(-c3ccccc3)cc2)cc1OC
 : -15% | -26%
CCOC(=O)C1=C(C)OC(N)=C(C#N)C1c1cncc(-c2ccc(F)cc2)c1 (configuration not stated)
 : -1% | -14%
COC(=O)C1N[C@@H]([C@@H](NC(=O)COc2ccccc2)C(=O)NCc2ccc(OC)cc2)SC1(C)C (some centres not stated)
 : -10% | -13%&-5%
CC(c1ccccc1)n1cncc1C(=O)O (configuration not stated)
 : i | -7%
COc1ccc(CNC(=O)c2cnn3c(C(F)F)cc(C)nc23)cc1OC
 : i | -19%
COc1cc(C(=O)NCc2nnc(SCC(=O)Nc3cccc(C)c3)o2)cc(OC)c1OC
 : i | -8%
COc1ccc(NC(=O)c2cnn(-c3ccc(F)cc3F)c2C2CCN(C(=O)OC(C)(C)C)CC2)cc1Cl
 : -10% | -26%
CCC(C)[C@@H](CN)NCC1(c2ccccc2)CC1 (some centres not stated)
 : -13% | -7%
COc1ccc(-c2csc(-c3c(N)c(C(=O)c4ccccc4)n4ccccc34)n2)cc1OC
 : -20% | -13%
COc1ccc(CCNC(=O)c2ccc3c(c2)N(Cc2ccccc2)C(=O)c2ccccc2S3=O)cc1OC (configuration not stated)
 : -28% | -20%
O=C(Nc1ccncc1)c1cccn(Cc2ccccc2)c1=O
 : i | -12%
CCN1CCN(CCCNC(=O)c2ccc3c(=O)n(CCc4ccccc4)c(=O)[nH]c3c2)CC1
 : 6% | -3%
O=C(NN1C(=O)c2ccccc2NC1c1ccco1)c1ccc([N+](=O)[O-])cc1 (configuration not stated)
 : i | -18%
CC(C)N(C(=O)COC(=O)c1cncc(Br)c1)C(C)C
 : -4% | -7%
Cc1csc(SCC(=O)N2CCOc3ccc(C(O)C4CCCCC4)cc3C2)n1 (configuration not stated)
 : -5% | -11%
CC(=O)Nc1cc(-c2ccccc2F)cn2c(-c3ccccc3)cnc12
 : 19% | -2%
Nc1ncnc2c1ncn2-c1ccccc1Cl
 : i | 1%
COc1ccc(CCNC(=O)Cn2cc(C(F)(F)F)cc(Cl)c2=O)cc1OC
 : -4% | 2%
COC(=O)c1cn(NC(=O)CCC2CCCC2)c(=O)c2ccccc12
 : -11% | -7%
CC1(C)Cc2nc3oc4c(=O)n(CC(=O)Nc5ccccc5)cnc4c3cc2CO1
 : -2% | -19%
COC(=O)CC1C(=O)NCCN1C(=S)NC(=O)c1ccccc1[N+](=O)[O-] (configuration not stated)
 : i | 0%

Laid out differently: 4 of the compounds above.
structure	Vaccinia mCherry	Vaccinia Venus
CC(C)N(C(=O)COC(=O)c1cncc(Br)c1)C(C)C	-4%	-7%
Cc1csc(SCC(=O)N2CCOc3ccc(C(O)C4CCCCC4)cc3C2)n1 (configuration not stated)	-5%	-11%
CC(=O)Nc1cc(-c2ccccc2F)cn2c(-c3ccccc3)cnc12	19%	-2%
Nc1ncnc2c1ncn2-c1ccccc1Cl	i	1%

New compounds follow:
Each structure is followed by: Vaccinia mCherry | Vaccinia Venus
CSc1cccc(NC(=O)C2CCN(S(C)(=O)=O)CC2)c1
 : -15% | -9%
COc1ccc2oc(C(=O)OCC(=O)Nc3ccc(N4CCOCC4)cc3)c(C)c2c1
 : i | -11%
CC(C)C(=O)Nc1ccc(COc2ccccc2CN(Cc2ccccc2)C(=O)OC(C)(C)C)cc1
 : ? | 6%
Cc1c(Cc2ccccc2)c(=O)oc2c(C)c(OCC(=O)Nc3ccc(C#N)cc3)ccc12
 : -14% | -1%
O=C(CN1CCN(c2ccc(F)cc2)CC1)Nc1nccs1
 : i | -12%
Cc1cc2oc(=O)cc(CN3CCN(c4ccccc4)CC3)c2cc1Cl
 : 24% | -10%
O=C(O)c1nn(CC(=O)N2CCN(c3ccccc3)CC2)c(=O)c2ccccc12
 : i | 0%
Cc1ccc(C)c(-c2nn(-c3cc(N4CCN(CCO)CC4)ccc3[N+](=O)[O-])c(=O)c3ccccc23)c1
 : ? | -30%
c1ccc(C2[C@H]3CN(Cc4cccnc4)[C@H](c4ccccc4)C34CC2(c2cccnc2)C4)cc1 (some centres not stated)
 : -18% | ?
CCc1ccc(-n2c(SCC(=O)Nc3cccc(S(=O)(=O)NC4=NCCCCC4)c3)nc3ccccc3c2=O)cc1
 : -5% | -20%
C=C1CCN(c2ccc(C(=O)O)cc2[N+](=O)[O-])CC1
 : i | -14%
O=C(NC1CCN(S(=O)(=O)c2ccc(F)cc2)CC1)c1ccccc1
 : i | -1%
CN(C)CCCNc1nc2cc(-c3ccc4c(ccn4C)c3)sc2c(=O)n1C
 : -8% | -14%
Cc1cc2c(cc1C)C(=O)C(=O)N2
 : i | 4%
Cc1ccc(S(=O)(=O)N(C)C)cc1N
 : i | -19%
CCCCN(CC)CCCNC(=O)c1cc2c(=O)oc3ccc(C)cc3c2s1
 : 6% | -4%
Cc1ccc(C(=O)NCC(=O)OCC(=O)c2cccc3ccccc23)cc1
 : -16% | -12%
CCc1cccc(NC(=O)COC(=O)/C=C/c2cccs2)c1
 : i | -6%
CCn1c(O)c(C=Nc2ccccc2)oc1=S
 : nt | -6%
CCOc1cccc(OCCCOc2ccccc2)c1
 : nt | -22%
O=C(Nc1ccc(Br)cc1F)C1CCN(c2nc3ccccc3[nH]2)CC1
 : -15% | -6%
Nc1cccc(S(=O)(=O)c2cccc(N)c2)c1
 : 7% | 12%
CCOC(=O)C1=C(C)N(CC(C)C)C(=O)C1
 : -1% | 2%
COc1ccc(/C=N/c2oc(C)c(C)c2C#N)c(OC)c1
 : -23% | -8%
CCN1CCN(c2cc(C)c3cc(NC(=S)N4CCN(c5ccccc5)CC4)ccc3n2)CC1
 : -15% | -2%
CCc1ccc2c(c1)c(=O)c(S(=O)(=O)c1ccc(F)cc1)cn2CC(=O)Nc1ccccc1OC
 : -12% | -5%
CC(C)c1ccc(NC(=O)Nc2nnc([C@@H]3C[C@H](O)[C@@H](CO)O3)s2)cc1
 : 23% | 8%
O=C(Nc1ccccc1C(=O)OCc1cc(=O)n2nc(C3CC3)sc2n1)c1ccc(Cl)cc1
 : -11% | -9%
COc1ccc2c(c1)c1nnc(SC)nc1n2Cc1ccccc1
 : -10% | -10%
CCc1ccc(NS(=O)(=O)c2c(C(=O)N3CCCCCC3)c(C)n(C)c2C)cc1
 : -18% | -8%
CCOC(=O)c1sc(NC(=O)c2ccc(=O)[nH]c2)nc1C
 : -9% | 4%
CCc1cccc(-n2c(C)nc3c(cnn3-c3ccc(Cl)cc3)c2=O)c1
 : -19% | -27%
Cc1ccc(NC(=O)c2cc(=O)c3ccccc3o2)cc1S(=O)(=O)N1CCCCC1
 : ? | -25%
CC(NC(=O)CSc1ncn[nH]1)c1ccc(Cl)cc1Cl (configuration not stated)
 : -7% | -20%
CCOC(=O)C1=C(CN2CCCCC2)NC(=O)NC1c1cc(C)ccc1C (configuration not stated)
 : -12% | -9%&-12%
O=C(/C=C/c1ccc(Cl)cc1Cl)NCc1ccncc1
 : -3% | -19%
CCc1ccccc1NC(=O)CN(C)Cc1c(O)ccc2ccccc12
 : -12% | -9%
COc1cc(C2N(c3ccccc3)CCN2c2ccccc2)ccc1OC(C)=O
 : nt | -16%
COc1cc2oc(=O)cc(CN3CCN(C(C)=O)CC3)c2cc1Cl
 : 0% | 7%
Cc1cc(C)c(S(=O)(=O)N2CCC(N3CCN(Cc4ccc(F)cc4)C(=O)C3=O)CC2)c(C)c1
 : -11% | -4%
COc1cccc(CN(C(=O)c2ccc(C(C)(C)C)cc2)C2CCS(=O)(=O)C2)c1 (configuration not stated)
 : -12% | -12%
COCCn1c(SCC(=O)NC2CCCC2)nnc1C(C)C
 : -12% | -5%
CCOC(=O)c1n[nH]n2c1nc(=S)c1ccccc12
 : -12% | -10%
NS(=O)(=O)c1ccc(CCNC(=O)COC(=O)c2cc([N+](=O)[O-])ccc2N2CCOCC2)cc1
 : -29% | -4%
COc1ccc(NS(=O)(=O)c2cccc(C(=O)NCc3ccco3)c2)cc1
 : i | -2%
CC(C)(C)NC(=O)COC(=O)c1ccc(Cl)cc1O
 : i | -17%
CCN1CCCc2cc(CN(CCN3CCOCC3)C(=S)Nc3ccc(OC)c(OC)c3)ccc21
 : -1% | -13%
O=C(Nc1cccc(-c2cnc3ccccc3n2)c1)c1ccncc1
 : i | -25%
O=C1NC(c2ccccc2)=CC(c2ccccc2)N1 (configuration not stated)
 : -3% | -12%
CCOc1c(Br)cc(CNc2ncn[nH]2)cc1OC
 : nt | -33%

Continued:
Each structure is followed by: Vaccinia mCherry | Vaccinia Venus
Clc1ccc(OCc2nn3c(-c4ccncc4)nnc3s2)cc1
 : 16% | -7%
COc1ccc(NC(=O)CSc2ccc(-c3ccco3)nn2)cc1
 : -17% | -11%
O=c1[nH]c(Cc2ccccc2)nc2ccccc12
 : 2% | 0%
COc1ccc(NCc2ccccc2-c2nnc(-c3ccccc3)o2)cc1Cl
 : -6% | -5%
Cc1cc(C)cc(NC(=S)N2CCC(NC(=O)c3ccccc3C)CC2)c1
 : ? | -8%
COc1ccc(NC(=O)CN(C)C(=O)CN2C(=O)c3ccc([N+](=O)[O-])cc3C2=O)cc1
 : -13% | -13%
NNC(=O)CNC(=O)c1ccccc1F
 : -6% | 0%
N#Cc1ccsc1NC(=O)CN(Cc1ccccc1)Cc1ccccc1
 : i | -12%
Cc1ccccc1NC(=O)CN1CCC(NC(=O)Nc2ccccc2)CC1
 : i | -19%
Cc1ccc(N2CCN(S(=O)(=O)N(C)C)CC2)c(C)c1
 : ? | -14%
CC1CCN(C(=O)c2[nH]cnc2C(=O)Nc2ccccc2)CC1
 : -15% | -18%
CCN(CC)C(=O)CSc1nnc(-c2ccccn2)n1-c1ccc(C)c(C)c1
 : i | -13%
Cc1ccc(C(=O)N/C(=C\c2cn(C)c3ccccc23)C(=O)N2CCN(C)CC2)cc1
 : ? | -14%
Cc1noc(Cn2c(=O)c3cc4c(cc3n(CC(=O)Nc3ccccc3Br)c2=O)OCO4)n1
 : -12% | -11%
COc1ccccc1OCC(=O)Nc1cccc(-c2nc3ccccc3o2)c1
 : -25% | -19%
CCOc1cccc2sc(N3CCN(C(=O)c4ccco4)CC3)nc12
 : i | -13%
O=c1c2[nH]c3ccccc3c2ncn1Cc1ccco1
 : -12% | -20%
CSc1ccc(Nc2nn(-c3ccc(OC(F)(F)F)cc3)nc2C(C)=O)cc1
 : -26% | -25%
O=C(COC(=O)c1ccc2c(c1)C(=O)N(c1cccc3ncccc13)C2=O)c1ccc(Cl)cc1
 : i | -17%
COC(=O)Nc1ccc(S(=O)(=O)Nc2ccc(C(=O)O)cc2)cc1
 : -1% | 0%
Cc1ccc(-c2nc3ncccc3o2)cc1NC(=O)c1ccco1
 : -16% | -3%
O=C(Cc1cccs1)N(c1ccc(Cl)cc1)C1C=CS(=O)(=O)C1 (configuration not stated)
 : -14% | -2%
O=C(COC(=O)CNS(=O)(=O)c1c(Cl)cccc1Cl)Nc1ccccc1Sc1ccccc1
 : -13% | -3%
CCOC(=O)c1nn(-c2sc(C(=O)OC)c(C)c2C(=O)OC)cc1O
 : -15% | -6%
CCCCCCCCN1C(=O)[C@H](CC(=O)NCC2CCCCC2)C[C@@]2(C(=O)OC)CC(C)(C)CC=C12
 : -15% | -8%
COC(=O)c1ccc(CSc2nnc(-c3c[nH]c4ccccc34)n2C)o1
 : -23% | 0%
c1ccc(-c2cc(N3CCCCC3)c3ccccc3n2)cc1
 : -9% | 2%
